Screening results as filed in PubChem BioAssay.
SmPrx2 inh: Schistosoma Mansoni Peroxiredoxins (Prx2). Schistosoma mansoni peroxiredoxin 2 (Prx2). S. mansoni Prx2 activity coupled to TGR/GSH (TGR is thioredoxin glutathione reductase), NADPH fluorescence loss, qHTS; some inactives read as strong as hits. AID 448, 2006. actives 0.07% (n = 65,000). Potency, µM; active means full or partial inhibition curve with a strong effect at the top dose; inconclusive means weaker partial or single-point curve; inactive means no accepted curve; also: series up to 57 µM; many of its hits are not listed in these tables
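Enzyme mix: 100 uM NADPH, 25 nM TGR, 700 uM GSH, 50 nM Prx2 in 100 mM phosphate pH 7.4, 10 mM EDTA, 0.01% Tween-20. 15 min RT with compound; NADPH/GSH added, H2O2 starts reaction; NADPH fluorescence read 8 min.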
LT uptake inh: qHTS Assay for Anthrax Lethal Toxin Internalization | AID 912, 2007 | Potency, µM (top dose mostly 40 µM), inactives show at the top dose activity change, negative = inhibition, actives largely listed as inhibitors | Cells, anthrax lethal toxin internalization, FRET ratio (460/530) | actives 0.67% (n = 70,000); active = well fitted falling ratio curve with the 530 nm signal flat; inconclusive = other ratio curves, or a change in one channel alone; inactive = flat curves in the ratio and both channels; the % refers to the ratio; also: % is scaled to controls: 0 for no effect and ±100 for the full control effect; nearly all actives have a fitted effect of over 50% in size; tested in ME-180 cells; beta-lactamase reporter
An asterisk follows results filed as active; ? = inconclusive; . = not tested or not shown; & = joins results of further samples; [ ] = dose if it differs, or a comment. Potency is read from the fitted curve at half-maximal effect.

The opening 2 records, to show the layout:
SMILES	SmPrx2 inh	LT uptake inh
COc1ccc2c(c1)Cc1sc(NC(=O)c3cccs3)nc1-2	>57	-4%
O=C(c1cccc(Cl)c1)N1CCN(Cc2ccncc2)CC1	>57	14%

This part in full, from the first entry:
SMILES	SmPrx2 inh	LT uptake inh
COc1ccc2c(c1)Cc1sc(NC(=O)c3cccs3)nc1-2	>57	-4%
O=C(c1cccc(Cl)c1)N1CCN(Cc2ccncc2)CC1	>57	14%
CC12CC[C@@H]3c4ccc(OS(=O)(=O)O)cc4CC[C@H]3C1CCC2=O (some centres undefined)	>57	-7%[3.58 µM]
COc1ccc(CNS(=O)(=O)c2ccc3oc(C(=O)O)c(C)c3c2)cc1	>57	?
COC(=O)c1ccccc1COn1c(=O)c[n+]([O-])c2ccccc21	>57	2%
COC(=O)c1c(NC(=O)CSc2nnnn2C)sc(C)c1C	>57	-5%
CCOC(=O)N/N=C1/C[C@@H](O)[C@@H](O)[C@@H]2[C@@H]3C(=O)N(c4cccc(Oc5ccccc5)c4)C(=O)[C@H]3CC[C@H]12	.	-6%[1.6 µM]
C(#CCN1CCCC1)CN1CCCC1	>57	?
CCOCc1nnc(NC(=O)CSCc2ccccc2)s1	>57	-10%
COCCNC(=O)CN1C(=O)CSc2cc(S(=O)(=O)N3CCCCCC3)ccc21	>57	2%
CC(C)(C)C(=O)NC1CCN(S(=O)(=O)c2cccc(C(F)(F)F)c2)CC1	>57	-4%
COc1ccc(C)cc1S(=O)(=O)NC1CCCC1	>57	-2%
O=C(NCc1ccco1)N1c2ccccc2Sc2ccccc21	.	?
COc1ccccc1-c1nc(-c2ccncc2)no1	>57	-9%
Cn1cnc2c1c(=O)[nH]c(=O)n2C	>57&>57	-4%[3.58 µM]
O=C(O)CCCNS(=O)(=O)c1ccc(Br)s1	>57	-3%
CCNC(=O)N1C(=O)C2(OCCO2)c2cc(Br)ccc21	>57	.
O=c1c(-c2cc(F)cc(F)c2)nc2cnc(N3CCOCC3)nc2n1CCc1ccccc1	>57	?
N=c1ccn(Cc2ccc(Cl)c(Cl)c2)cc1	>57	?
COc1ccccc1NC(=O)CN1CCC(n2nnc3cc(F)ccc32)CC1	>57	11%
C1CCC(CNc2c3c(nc4nnnn24)CCCC3)CC1	>57	2%
COC(=O)C1CCN(C(=O)c2ccc(SC)cc2OC)CC1	>57	.
Cc1cc(Nc2ccccc2)nn1C(=O)c1ccccc1	>57	-25%
O=C(NCCN1CCN(c2ccccc2)CC1)c1cccc(Br)c1	>57	-22%
O=C(NCCN1CCCC1)c1ccc(Cn2c(=S)[nH]c3cc4c(cc3c2=O)OCO4)cc1	>57	?
CCOCC(=O)Nc1nc2ccc(OC)cc2s1	.	19%
CCN(CCCNC(=O)CCn1c(=O)[nH]c2ccccc2c1=O)c1cccc(C)c1	>57	-5%
O=C(CCCOc1ccccc1)Nc1ccc2c(c1)OCCO2	>57	-10%
COc1ccc2c(c1)c1nnc(SCC(=O)N3CCCCC3C)nc1n2C (centres undefined)	>57	-2%
COc1ccc(-n2nc3cc(C)c(NC(=O)CC(C)C)cc3n2)cc1	.	-4%
CNC(=O)C1(CC(C)C)C=CCN1C(C)=O (centres undefined)	.	7%
COc1ccc(NS(=O)(=O)c2ccc(SC)cc2)cc1	>57	1%
COC(=O)c1ccc2c(c1)SC1=C(CCCC1=O)N2	>57	-8%
O=C(NCC(=O)N(c1ccccc1)C(C(=O)NC1CCCCC1)c1ccncc1)c1ccco1 (centres undefined)	>57	16%
COc1ccc(C(=O)n2nc(C)cc2C)cc1Br	.	?
O=C(CN1CCOCC1)Nc1c(-c2ccccc2)c2cc(Br)ccc2[nH]c1=O	.	-13%
CC1Oc2ccccc2N(CC(=O)N2CCc3ccccc32)C1=O (centres undefined)	>57	-18%
Cn1cnnc1SCc1ccc(C(=O)n2ncc(C#N)c2N)cc1	>57	?
O=C(NCC1CCCCC1)C1CCN(C(=O)NC2CCCCC2)CC1	>57	?
O=S1(=O)CC(O)C(NCc2cccnc2)C1 (centres undefined)	>57	-21%
Cc1ccc(S(=O)(=O)N(CCC#N)CCN2CCCC2)cc1	.	-9%
CN(C)CC(=O)Nc1cc(C(F)(F)F)ccc1Cl	>57	3%
Cc1cc2cc(CNC(=O)CCC(=O)O)ccc2[nH]1	>57	5%
N#Cc1nc(Cc2cccc3ccccc23)oc1NCc1ccco1	>57	?
COc1ccc(O)c(C(=O)CC(=O)c2ccccc2)c1	.	?
Cc1cc(C)n(-c2ccc(C(=O)OCC(=O)c3ccc(Br)s3)cc2)n1	>57	-9%
CC[C@]1(O)C[C@@H]2CN(CCc3c([nH]c4ccccc34)[C@](C(=O)OC)(c3cc4c(cc3OC)N(C=O)[C@H]3[C@@](O)(C(=O)OC)[C@H](C(=O)OC)[C@@]5(CC)C=CCN6CC[C@]43[C@H]65)C2)C1	>57	?
O=C(NCCCN1CCN(c2cccc(Cl)c2)CC1)c1ccc(N2CCCC2=O)cc1	>57	7%
O=C(CSc1n[nH]c(C2CCCC2)n1)NC1CCCC1	>57	-15%
CC1(C)Cc2c(sc3ncnc(N)c23)CO1	>57	?
COC(=O)c1ccc(NC(=O)CN2CCN(c3ccccc3)CC2)cc1	>57	-5%
Cc1oc(-c2cccc(Cl)c2)nc1CN1CCC(C(=O)NCC2CCCO2)CC1 (centres undefined)	>57	5%
CC(=O)O[C@@H](C)C[N+](C)(C)C	>57&>57	?
O=C(CC1Oc2ccccc2NC1=O)NCc1ccccc1 (centres undefined)	>57	-10%
O=c1[nH]c(=O)n(Cc2ccco2)c2c1C(C(F)(F)F)(C(F)(F)F)N=C(C1CCCCC1)N2	>57	5%
CCCn1c(SCc2cc(=O)[nH]c3ccccc23)nc2c1c(=O)n(C)c(=O)n2C	>57	-11%
CC(C)(C)C(=O)Nc1ccc(-c2cn3ccsc3n2)cc1	>57	12%
COc1ccc(Nc2ccc3c(c2)=NC2(CCCCC2)[N+]=3[O-])cc1	.	?
CCCC1(C(=O)OCC)NC(c2cc(OC)c(OC)c(OC)c2)C2C(=O)N(CC)C(=O)C21 (centres undefined)	>57	0%
Cc1nc(N)c(C#N)c(-c2ccccc2)c1C	>57	-4%

Remaining list, next part
SMILES	SmPrx2 inh	LT uptake inh
Cc1nc(-n2nnc3ccccc32)c2c3c(sc2n1)CCCC3	>57	-19%
O=C(NCSC1=NCCS1)c1ccccc1	>57	2%
Cc1ccc(S(=O)(=O)N2CCC(C(=O)N3CCC[C@H]3C(=O)NC3CCS(=O)(=O)C3)CC2)cc1 (some centres undefined)	>57	.
CCOC(=O)c1cnc2cc3c(cn2c1=O)CCCC3	>57	?
Cc1cc(=O)n2c(n1)OC(CO)C2 (centres undefined)	>57	4%
COC(=O)c1ccc(NC(=O)c2ccc(CN3CCOCC3)cc2)cc1	>57	-9%
CCn1c(=O)cc(SCC(=O)NCCCN2CCN(c3ccccc3F)CC2)c2ccccc21	>57	-12%
COc1ccc(CCn2c(-n3nc(C)cc3C)nc3c2c(=O)[nH]c(=O)n3C)cc1	>57	4%
Cc1nc(C)c(C(=O)NCc2ccc(Cl)cc2)o1	>57	?
COCC(=O)Nc1c(C(=O)Nc2cccc(OC)c2)oc2ccccc12	>57	-5%
CCOc1ccc(-n2c(C)nc3cc(C(=O)NCCCN4CCOCC4)ccc32)cc1	>57	0%
Cc1cc(O)cc(=O)n1Cc1ccco1	>57	?
CC(C)(C)OC(=O)NCCCCCc1nnc(SCC(N)=O)o1	>57	2%
Cn1cc(-c2nc3cnc(N4CCOCC4)nc3n(CCC#N)c2=O)c2ccccc21	>57	?
CCCC(=O)Nc1cc(-c2nn(C)c(=O)c3ccccc23)ccc1OC	>57	-16%
CC1CC(C)CN(Cc2nc3c(c(=O)n(C)c(=O)n3C)n2Cc2ccccc2Cl)C1 (centres undefined)	>57	6%
Cc1n[nH]c(=O)nc1NCc1ccccc1	.	3%
CCc1c2c(nc3ccccc13)OC(C)C2 (centres undefined)	>57	-2%
CCOC(=O)C1CCCN(S(=O)(=O)c2c(C)c(C)cc(C)c2C)C1 (centres undefined)	>57	-8%
COC(=O)C1CCN(C(=O)C23CCC(C)(C(=O)O2)C3(C)C)CC1 (centres undefined)	>57	-5%
CCC1CC(C)(C(=O)Nc2ccc(S(N)(=O)=O)cc2)OC1=O (centres undefined)	.	2%
Cc1ccc(C)c(/C(O)=C2/C(=O)C(=O)N(CCN3CCOCC3)C2c2ccc(C)o2)c1 (centres undefined)	>57	8%
COc1ccccc1NC(=O)Cc1csc(N)n1	>57	-8%
Cc1ccc(-c2ccc(=O)n(CC(=O)NCCCN3CCCCC3C)n2)cc1 (centres undefined)	>57	-11%
CCCc1nc(SCC(=O)N2CCc3ccccc32)c2c(=O)n(C)c(=O)n(C)c2n1	>57	-2%
CCOc1ccccc1C(=O)N1CCCCC1C (centres undefined)	>57	-4%
CCN(c1ccc(OC)cc1)S(=O)(=O)c1ccc2c(c1)CCN2C(=O)CCC(=O)O	>57	4%
CCOC(=O)C1CCN(C(=O)c2cccc(NC(=O)C(CC)CC)c2)CC1	>57	4%
CC1CCN(Cc2nc3c(c(=O)n(C)c(=O)n3C)n2CCCc2ccccc2)CC1	>57	?
O=C(O)c1c(Br)c(Br)c(Br)c(Br)c1C1c2ccc(O)cc2Oc2cc(O)ccc21	>57	?
CC(=O)Nc1ccc(Oc2cc(C#N)c(C#N)cc2N2CCCCCC2)cc1	>57	-9%
CN(C)Cc1cn(CCC(=O)O)c2ccccc12	>57	-2%
O=S(=O)(NC1CCCC1)c1ccc(S(=O)(=O)N2CCc3ccccc32)cc1	>57	-8%
CO[C@@H]1COC(=O)C/C=C\[C@@H](C)[C@H](OC)COC(=O)C/C=C\[C@H]1C	.	-2%[8 µM]
Cc1nnc(SCCn2c(N3CCN(Cc4ccccc4)CC3)nc3c2c(=O)[nH]c(=O)n3C)s1	>57	-14%
CCCCCCC1=Cc2cc(OC)c(OC)cc2C(C2(C(=O)OCC)CCCC2=O)O1 (centres undefined)	.	-20%[8 µM]
c1nc(N2CCOCC2)c2[nH]cnc2n1	>57	12%
CCNS(=O)(=O)c1c(C)cc(N2CCCC2=O)cc1C	>57	0%
CCCCN(C)CCCNC(=O)c1cccc(N2CCCC2=O)c1	>57	-5%
c1ccc(CCN2CCN(c3ncnc4c3cnn4-c3ccccc3)CC2)cc1	>57	-11%
COc1cc(-c2nc(S(=O)(=O)c3ccc(C)cc3)c(N3CCOCC3)o2)cc(OC)c1OC	>57	1%
O=C1C[C@H](c2ccccc2)Oc2cc(O)cc(O)c21	>57	?
O=C(Nc1cc(C(F)(F)F)ccc1N1CCCCC1)c1ccco1	>57	6%
CC1(C)NC(=O)N(CC(O)COc2ccccc2-c2ccccc2)C1=O (centres undefined)	>57	-2%
CCOC(=O)CNC(=O)CSc1nnc(COc2ccc(Cl)cc2)n1CC	>57	-6%
O=C(CSc1nc2ccccc2o1)Nc1ccc(N2CCOCC2)c(Cl)c1	>57	-18%
O=C(CSc1nnc(Cc2cccs2)n1-c1ccccc1)NCc1ccc2c(c1)OCO2	>57	?
N#Cc1ccc(OCc2nnc(SCC(=O)N3CCCc4ccccc43)n2-c2ccccc2)cc1	>57	-13%
CCOC(=O)c1cc2c(=O)n3ccccc3nc2n(CCOC)c1=NC(=O)c1ccncc1	>57	?
COc1ccc(C2(C(=O)Nc3cc(C)on3)CCOCC2)cc1	?	6%
O=C(Nc1ccc(S(=O)(=O)NCc2ccco2)cc1)c1ccc2ccccc2n1	>57	-27%
O=C(CN(CCc1ccccc1)C(=O)CNS(=O)(=O)c1ccccc1)NCC1CCCO1 (centres undefined)	>57	-3%
Nc1cc(=O)[nH]c(=O)n1Cc1ccco1	>57	12%
CN1C(=O)CC(N2CCN(C(c3ccccc3)c3ccccc3)CC2)C1=O (centres undefined)	>57	12%
CCOC(=O)N1CCN(Cc2nc3c(c(=O)n(C)c(=O)n3C)n2Cc2ccccc2C)CC1	>57	-5%
O=C(CNC(=O)c1cccs1)NC1=NCCS1	>57	7%
Cc1cc(N2C(=O)C3C4C=CC(C4)C3C2=O)ccc1Br (centres undefined)	>57	-3%
CC1CN(C2CCCCC2)c2nc3c(c(=O)n(C)c(=O)n3C)n2C1 (centres undefined)	>57	3%

Not all compounds are listed, so the mix of outcomes need not match the whole.
